# Source: PubChem
# TRPML1 blocker – qHTS for Inhibitors of the Human Mucolipin Transient Receptor Potential 1 (TRPML1); TRPML1-inducible cells, Ca2+ dye fluorescence, FDSS; stronger effect = lower value; inhibition of EC80 agonist-evoked calcium signal; activity change, negative = inhibition, % (test concentration not listed); hit rate 0.02% among 390,000; AID 624415, 2012; in the data active means activity change below about -50%; inconclusive means about -30% to -50%; inactive means above about -30%;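 also: stimulus is agonist 54-4 at its EC80 concentration; % is scaled to controls: 0 for no effect and ±100 for the full control effect; compound concentration not given in the record; the text of the record puts the active cut at -80%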
# Target sequence (Q9GZU1 whole entry, looked up): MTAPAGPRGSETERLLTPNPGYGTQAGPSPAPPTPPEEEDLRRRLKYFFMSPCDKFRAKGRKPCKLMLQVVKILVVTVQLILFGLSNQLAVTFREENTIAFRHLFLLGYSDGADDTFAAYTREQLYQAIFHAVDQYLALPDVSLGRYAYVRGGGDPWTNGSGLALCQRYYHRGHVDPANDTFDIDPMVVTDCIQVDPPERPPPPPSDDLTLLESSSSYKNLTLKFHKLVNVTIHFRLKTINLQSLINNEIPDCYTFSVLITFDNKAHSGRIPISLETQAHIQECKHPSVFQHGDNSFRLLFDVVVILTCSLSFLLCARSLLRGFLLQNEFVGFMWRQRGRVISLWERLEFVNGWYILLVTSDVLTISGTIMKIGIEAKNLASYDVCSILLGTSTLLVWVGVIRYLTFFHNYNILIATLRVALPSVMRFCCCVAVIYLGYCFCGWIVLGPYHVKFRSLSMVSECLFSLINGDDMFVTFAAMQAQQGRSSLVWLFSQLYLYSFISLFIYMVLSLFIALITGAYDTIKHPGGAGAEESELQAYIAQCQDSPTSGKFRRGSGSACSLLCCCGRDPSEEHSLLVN
#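 Tet-induced TRPML1-DL cells loaded with Ca8 no-wash calcium dye were read kinetically on FDSS. Compound addition was followed by EC80 agonist 54-4 (4 uM final); inhibition was read over 110 s.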
# TRPML1 ag – qHTS for Agonists of the Human Mucolipin Transient Receptor Potential 1 (TRPML1); Mucolipin-1 (Homo sapiens), Q9GZU1; activation, % (concentration not given with the values); TRPML1-expressing cells, Ca2+ dye fluorescence, FDSS; host cell line not named in the record; reference of the full effect not given here; AID 624414, 2012; hit rate 0.12% among 410,000; in the data active = activation above about 50%; inconclusive = about 30% to 50%; inactive = below about 30%; also: 0% is about no effect; the text of the record puts the active cut at 80%
#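 Tet-induced TRPML1-DL cells, 1,500 per well, cultured overnight, were loaded with a no-wash Ca2+ dye for 45–90 min. Calcium fluorescence was recorded on the FDSS for 110 s after compound addition, before the EC80 agonist (4 uM 54-4) was added.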
# Menin MLL FP FL – qHTS Assay for Inhibitors Targeting the Menin-MLL Interaction in MLL Related Leukemias: Competition With Fluorescein Labeled MLL-derived Peptide | FP activity change, % at 61.4 µM | Fluorescence polarization, fluorescein-MLL peptide displacement from menin | AID 1766, 2009 | 290,000 tested, under 10 active; inconclusive = falling polarisation curve, or a change in total fluorescence; inactive = total fluorescence flat and polarisation flat or rising; no compound was filed as active; the % refers to the polarisation; negative = inhibition;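 also: % of control where 0% means no effect; inhibitors lower the polarisation; unlabelled MLL peptide was the positive control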
# gsp ag – qHTS for Agonist of gsp, the Etiologic Mutation Responsible for Fibrous Dysplasia/McCune-Albright Syndrome: qHTS | gsp mutant cells, cAMP HTRF, 30 min; control for the full effect not named in the record | Potency, µM (highest dose often 76.9 µM), for the others: at the highest dose activation (cAMP increase), most hits filed as activators | hit rate 0.13% among 340,000; active = well fitted activation curve with a large enough effect; inconclusive = small, poorly fitted or top-dose-only effect, or another doubt; inactive = no such curve, though single readings can be large or run the other way; cell line not stated here;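 also: phosphodiesterase inhibitor Ro 20-1724 added with compounds to block cAMP breakdown; potency is read from the fitted curve at half-maximal effect; nearly all actives have a fitted effect of over 60% in size; about a fifth of the inactives were tested at one dose only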
#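 Cells stably selected in G418 were plated at 2000/well, grown 16-24 hr, then given compounds in DMSO with the PDE inhibitor […] (300 uM solution added) for 30 min at 37C; cAMP was read by HTRF.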
# ClpP mod – qHTS Assay for Activators of ClpP; ATP-dependent Clp protease proteolytic subunit (Bacillus subtilis (strain 168)), P80244; purified B. subtilis ClpP, FRET peptide cleavage, 20 min; hit rate 1.9% among 340,000; Potency, µM (series often up to 57.5 µM), without a hit: top-dose activity change, negative = active; active = well fitted falling curve with a large enough effect; inconclusive = small, poorly fitted or top-dose-only effect; inactive = no such curve, though single readings can be large or run the other way; also: potency is read from the fitted curve at half-maximal effect; the source files actives as falling curves though it sought activators and does not explain the sign; nearly all actives have a fitted effect of over 65% in size; many hits overshoot -100%
# Target sequence (P80244 whole entry, looked up): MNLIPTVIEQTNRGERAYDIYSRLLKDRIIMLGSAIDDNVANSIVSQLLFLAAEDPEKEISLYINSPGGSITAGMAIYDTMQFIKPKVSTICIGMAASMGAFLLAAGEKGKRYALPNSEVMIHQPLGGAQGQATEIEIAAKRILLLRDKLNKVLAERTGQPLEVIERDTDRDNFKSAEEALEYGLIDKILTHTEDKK
#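 ClpP 10 microg/mL final, pH 8 Tris/KCl buffer with BSA, glycerol, Tween-20; compound pinned in; FRET-FV substrate; RT 20 min; Ex320/Em430; ΔFRET vs ADEP 5.8 microM, DMSO, no enzyme.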
# gsp antag – qHTS for Antagonists of gsp, the Etiologic Mutation Responsible for Fibrous Dysplasia/McCune-Albright Syndrome: qHTS | Potency, µM (highest dose often 76.9 µM), for inactives: top-dose activity change, negative = inhibition, hits mostly inhibitors | hit rate 0.4% among 340,000 | gsp-mutant cells, cAMP HTRF, 30 min; control for the full effect not named in the record; active = falling curve of any shape with a large fitted effect; inconclusive = falling curve, mostly with a smaller effect; inactive = flat or rising curve; cell line not stated here;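 also: intracellular cAMP measured with PDE inhibitor Ro 20-1724 present during compound exposure; potency is read from the fitted curve at half-maximal effect; % is scaled to controls: 0 for no effect and ±100 for the full control effect; nearly all actives have a fitted effect of over 65% in size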
#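 G418-selected cells were plated in DMEM/10% FBS for 16-24 h at 37C, then treated with compounds plus the PDE inhibitor […] (300 uM solution added) for 30 min at 37C. Intracellular cAMP was measured by HTRF after 30 min lysis at room temperature.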
# Starred values were filed as active, the others as inactive; ? = inconclusive; / = not tested or not shown; & = joins results of further samples; [ ] = remark or other dose.
SMILES,TRPML1 blocker,TRPML1 ag,Menin MLL FP FL,gsp ag,ClpP mod,gsp antag
CN(CC(=O)Nc1cccc(F)c1)C(=O)c1ccccc1OCCOc1ccccc1,-1,-0.2,/,-8%,-2.2%,-14%
Cc1noc(C)c1S(=O)(=O)N1Cc2ccccc2CC1C(=O)N(C)C (configuration not stated),-3,0.1,/,-2%,0.5%,-15%
COC(=O)CC1(C(=O)OC)Oc2ccc(Br)cc2C(=O)N1c1cc(Cl)c(Cl)cc1Cl (configuration not stated),35,2.1,0.0,1%,0.8%,?
N=c1n(CCN2CCOCC2)c2ccccc2n1CC(=O)c1cccc([N+](=O)[O-])c1,-9,0.1,4.0,3%[15.4 µM],1.1%,?
CCOC(=O)C1C(=O)NC(SCC(=O)Nc2nccs2)=C(C#N)C1c1ccccc1OCC (configuration not stated),21,2.2,?,-29%,19%,-12%
CC(C)Cc1nn2c(=O)cc(COC(=O)c3cccc(NS(C)(=O)=O)c3)nc2s1,-14,0.5,/,/,0.8%,/
COc1ccc(/C=C\C(=O)NCc2ccc3[nH]c(C)cc3c2)cc1OC,-6,0.1,1.2,-47%[inhibitor],-20%,2%
O=C1CCC(=O)N1CCC(=O)N(C(=O)NC1CCCCC1)C1CCCCC1,-5,-0.3,/,10%,1.0%,/
CCN(CC)CC(O)COCCC12CC3CC(CC(C3)C1)C2 (configuration not stated),47,1.5,-0.7,1%,0.7%,3%
CCN(C(=O)C1CSC2(C)CCC(=O)N12)c1nc2c(C)cccc2s1 (configuration not stated),44,-0.9,/,0%,1.6%,3%
CSc1ncccc1C(=O)NCCc1ccccc1F,-8,0.2,1.6,4%[15.4 µM],/,4%
CCc1nc(SCc2ccc(OC)c(Br)c2)n[nH]1,27,2.1,-6.7,18%,-2.6%,4%
CC(=O)Nc1ccc(NC(=O)c2ccc(C3SCC(=O)N3CCc3ccccc3)cc2)cc1 (configuration not stated),15,-0.6,4.0,1%,0.6%,-12%
COCCNC(=O)C(c1ccc(C)cc1)N(Cc1ccccc1)C(=O)CCC(=O)Nc1ccccn1 (configuration not stated),7,0.1,/,2%[15.4 µM],/,-2%
O=C(Nc1cccc2cccnc12)c1ccc2c(c1)OCCO2,-1,-0.7,-3.2,?,-3.0%,-13%
Cc1cc(C)c(-c2c(O)c3cnn(-c4ccccc4)c3[nH]c2=O)c(C)c1,-3,-1.3,1.0,-1%[15.4 µM],2.7%,-5%
Cc1cccc(C(=O)NC2CCN(C(=S)NCc3ccco3)CC2)c1,-9,0.5,-0.4,-13%,-1.9%,-12%
Cc1cccc(NC2=NCC(=O)N2Cc2ccccc2)c1,17,1.8,-0.5,-13%,0.8%,22%
Cc1ccc(-c2onc(C)c2C)cc1S(=O)(=O)NCc1ccco1,-12,0.1,/,/,0.0%,/
CC1(C)CC(=O)C=C(c2ccc(-c3cccc4c3sc3ccccc34)cc2)C1=O,-1,-0.1,/,2%,1.3%,/
CCn1ccc(C(=O)N2CCOCC2)n1,-12,-0.7,-1.8,-4%[15.4 µM],/,7%
CC(C)Cn1c(CN2CCN(c3ccccc3F)CC2)nc2c1c(=O)[nH]c(=O)n2C,1,-0.7,6.4,0%,-1.6%,5%
CCN(Cc1cnn(C)c1)C(=O)CC1C(=O)NCCN1Cc1cccc(OC)c1OC (configuration not stated),-15,0.3,-1.2,-1%[15.4 µM],/,16%
CCC/C=C/c1ccc(CN2C(C)C(=O)N(Cc3cn(CCOCOC)nn3)CCS2(=O)=O)cc1 (configuration not stated),-3,-0.5,/,-17%,2.0%,/
C/C(=N\NC(=S)NCc1ccccc1)c1ccc(Cl)cc1,10,2.9,8.0,?,-1.7%,-14%
# (more compounds)
SMILES,TRPML1 blocker,TRPML1 ag,Menin MLL FP FL,gsp ag,ClpP mod,gsp antag
O=C(NCc1ccccc1Cl)c1cnccn1,19,5.1,5.9,5%,0.4%,7%[15.4 µM]
c1ccc(C2[C@H]3CN(CC4CCCCC4)[C@H](c4ccccc4)C34CC2(c2cccnc2)C4)cc1 (some centres not stated),-15,-0.3,5.5&4.0,-13%,-0.3%,-6%
CCOc1cc(/C=N/O)cc(Br)c1OCC(=O)NCc1ccccc1,1,0.5,-0.8,3%[15.4 µM],-3.3%,4%
Nc1cc(Cl)ccc1C(=O)OCC(=O)N1CCCC1,-8,-0.5,-1.2,-8%[15.4 µM],/,6%
CCOc1ccc(C(=O)NCC(=O)N2CCN(c3ccccc3O)CC2)cc1,1,-0.8,-6.2,-1%,/,7%
Cc1ncoc1C(=O)NC1CCCc2c1cnn2-c1cc(F)cc(F)c1 (configuration not stated),1,-0.5,/,8%,0.8%,/
CC1(C)CC(=O)C2=C(C1)OC1=C(C(=O)CC(C)(C)C1)C2c1ccc(O)c([N+](=O)[O-])c1,28,1.9,0.9,19%,1.3%,-34%
CCN(CC(=O)NC1CC1)S(=O)(=O)c1ccccc1,7,0.2,/,-12%,-0.2%,10%
CCOc1ccc(/C=C/C(=O)OC(C)C(=O)NC2CCCCC2C)cc1OC (configuration not stated),31,-0.9,/,?,-15%,7%
O=C(O)CCC(=O)Nc1ccc(Br)cc1C(=O)c1ccc(Cl)cc1,12,-0.1,-1.8,-37%[inhibitor],-1.4%,-11%
Cc1cc(Cl)ccc1OCCCC(=O)NCc1ccccn1,-9,-0.5,-0.2,-1%[15.4 µM],/,-10%
CCN(CC)c1ccc(/C=N/NC(=O)c2c(Cl)c(C)nn2C)cc1,16,1.6,0.8,-17%,11%,-6%
Cc1cccc(C(=O)OCC(=O)N(C)c2ccccc2)c1C,37,0.1,0.5,-16%[15.4 µM],/,2%
O=C(COc1ccc(S(=O)(=O)NC2CCCCC2)cc1Cl)N1CCN(c2ccccc2)CC1,5,0.7,1.1,1%,-1.4%,-2%
CCOc1ccc(NC(=O)Cn2c(=O)n(CCCS(=O)(=O)C3CCCCC3)c(=O)c3ccccc32)cc1,27,-0.9,/,/,1.8%,/
CCOC(=O)CN(C(=O)c1snc(C(N)=O)c1N)C(C(=O)NCCC(C)C)c1ccc(F)cc1 (configuration not stated),/,/,0.5,-1%,-24%,7%
COc1nccc(NCc2ccccc2)c1C#N,?,0.5,/,?,-4.3%,4%
CN(C)c1cccc(C(=O)Nc2nc3ccc(S(=O)(=O)NC(C)(C)C)cc3s2)c1,-1,-0.6,/,/,-19%,/
O=C(Nc1nc2ccccc2n1CCOc1ccccc1)c1ccco1,2,0.9,-2.1,0%,-12%,-20%
Cn1ncc(Cl)c1C(=O)NC1CCCC1,21,0.5,0.3,10%,-0.9%,10%
Cc1c(Cl)cccc1NC(=O)COCc1cc(-c2ccc3c(c2)OCO3)on1,-7,0.4,/,/,?,/
Cn1ccnc1SCC(=O)NC12CC3CC(CC(C3)C1)C2,0,0.5,1.2,-39%[inhibitor],-1.9%,0%
COc1cc(/C=N/n2cnnc2)ccc1OCc1ccc(C)cc1,14,-0.8,2.1,-27%,-17%,-11%
O=C(O)c1cc(=O)cc(C(=O)O)[nH]1,-19,-0.2,0.2&1.5,1%,-2.9%,6%
COCCNC(=O)C(c1ccc(OC)cc1)N(C(=O)Cn1nnc2ccccc21)c1cccnc1 (configuration not stated),-6,1.2,1.9,22%[15.4 µM],/,8%

# Look-ups from the results shown.
# `Cc1cc(Cl)ccc1OCCCC(=O)NCc1ccccn1` @ TRPML1 ag: -0.5
# `CCOc1ccc(/C=C/C(=O)OC(C)C(=O)NC2CCCCC2C)cc1OC` (configuration not stated) @ gsp antag: 7%

# (list continues)
SMILES,TRPML1 blocker,TRPML1 ag,Menin MLL FP FL,gsp ag,ClpP mod,gsp antag
COc1ccc(NC(=O)CN2CCN(c3nc(-c4ccc(F)cc4)cs3)CC2)c(OC)c1,-19,0.6,-0.1,-4%[15.4 µM],/,-23%
O=C(Cc1ccc(-c2ccccc2)cc1)Nc1ccccc1,9,1.7,-0.9,11%[15.4 µM],/,/
COc1ccc(CCNC(=O)CSc2nc(=O)n3cc(C)ccc3n2)cc1OC,6,-0.1,/,9%,-3.7%,2%
Oc1ccc(N=Nc2n[nH]c(-c3ccccc3)n2)cc1,12,0.2,2.3,-16%,-2.6%,?
Nc1cc2c(cc1Br)-c1c(C(=O)O)cccc1C2O (configuration not stated),-2,-0.6,/,-3%,?,-8%
O=C1/C(=C\c2ccc([N+](=O)[O-])cc2)CS(=O)(=O)C/C1=C/c1ccc([N+](=O)[O-])cc1,1,-0.1,/,13%,?,-13%
Cc1cc([N+](=O)[O-])c(C)cc1-c1ccc(/C=N/NC(=O)c2cccnc2)o1,-6,3.8,5.4,-8%,1.2%,?
O=C(CCc1n[nH]c(=O)[nH]c1=O)N/N=C/c1ccc(Br)o1,-17,-0.4,0.9,-40%[inhibitor],-2.2%,1%
CCOC(=O)c1nnc(-c2ccccc2)[nH]c1=O,28,0.1,2.4,-7%,0.9%,-5%
C=CCOC(=O)C1=C(C)Nc2ncnn2C1c1cc(Br)ccc1F (configuration not stated),0,1.9,-0.1,-9%,8.5%,-12%
O=C(NCCN1CCN(c2ccccc2)CC1)C1CCN(S(=O)(=O)N2CCOCC2)CC1,-1,0.0,0.1,-15%,-0.1%,7%
COc1ccc(NC(=O)C2CCN(S(=O)(=O)c3ccc4[nH]c5c(c4c3)CCCCC5)CC2)cc1,-15,2.3,/,/,-15%,/
O=C(COC(=O)c1cccc(OC(F)F)c1)NCC1CCCO1 (configuration not stated),1,1.2,/,18%,/,9%
Cc1ccc(-n2c(Cc3cccn3C)nnc2SCC(=O)NCc2ccco2)cc1,-16,0.0,10,-44%[inhibitor],5.9%,-14%
O=C(OCc1nnc(-c2ccccc2)o1)c1cc(Cl)ccc1[N+](=O)[O-],-6,3.2,1.0,5%,-5.3%,-23%
Cc1ccc(CSc2nnc(CS(=O)Cc3ccc(Cl)cc3Cl)n2C)cc1 (configuration not stated),-5,3.0,-1.8,-18%,-2.2%,-12%
CC(C)Oc1cccc(C(=O)C2CCCN(Cc3cnn(C(C)C)c3)C2)c1 (configuration not stated),-13,-0.4,-2.7,25%[15.4 µM],/,1%
CCn1cc2nc(SCC(=O)Nc3ccccc3F)n(Cc3ccc(C)cc3)c(=O)c2n1,11,1.8,/,/,-6.0%,/
COc1cccc(-c2nc(S(=O)(=O)c3ccc(C)cc3)c(N3CCCCCC3)o2)c1,2,-0.6,/,/,-19%,/
Cc1ccc(S(=O)(=O)N2CCC(C(=O)Nc3ccccc3N3CCCC3)CC2)cc1,1,1.6,/,17%,1.6%,-23%
